PKD1 kinase inh: inhibitors of human PKD1 kinase. Q15139. hit rate 0.056% among 200,000. inhibition, %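 (about 10 µM by stock and volumes)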. PKD1 kinase fluorescence polarization assay;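 active means inhibition of 50% or more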;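 further: controls were vehicle for no effect and a reference inhibitor for full effect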
Target sequence (Q15139 whole entry, looked up): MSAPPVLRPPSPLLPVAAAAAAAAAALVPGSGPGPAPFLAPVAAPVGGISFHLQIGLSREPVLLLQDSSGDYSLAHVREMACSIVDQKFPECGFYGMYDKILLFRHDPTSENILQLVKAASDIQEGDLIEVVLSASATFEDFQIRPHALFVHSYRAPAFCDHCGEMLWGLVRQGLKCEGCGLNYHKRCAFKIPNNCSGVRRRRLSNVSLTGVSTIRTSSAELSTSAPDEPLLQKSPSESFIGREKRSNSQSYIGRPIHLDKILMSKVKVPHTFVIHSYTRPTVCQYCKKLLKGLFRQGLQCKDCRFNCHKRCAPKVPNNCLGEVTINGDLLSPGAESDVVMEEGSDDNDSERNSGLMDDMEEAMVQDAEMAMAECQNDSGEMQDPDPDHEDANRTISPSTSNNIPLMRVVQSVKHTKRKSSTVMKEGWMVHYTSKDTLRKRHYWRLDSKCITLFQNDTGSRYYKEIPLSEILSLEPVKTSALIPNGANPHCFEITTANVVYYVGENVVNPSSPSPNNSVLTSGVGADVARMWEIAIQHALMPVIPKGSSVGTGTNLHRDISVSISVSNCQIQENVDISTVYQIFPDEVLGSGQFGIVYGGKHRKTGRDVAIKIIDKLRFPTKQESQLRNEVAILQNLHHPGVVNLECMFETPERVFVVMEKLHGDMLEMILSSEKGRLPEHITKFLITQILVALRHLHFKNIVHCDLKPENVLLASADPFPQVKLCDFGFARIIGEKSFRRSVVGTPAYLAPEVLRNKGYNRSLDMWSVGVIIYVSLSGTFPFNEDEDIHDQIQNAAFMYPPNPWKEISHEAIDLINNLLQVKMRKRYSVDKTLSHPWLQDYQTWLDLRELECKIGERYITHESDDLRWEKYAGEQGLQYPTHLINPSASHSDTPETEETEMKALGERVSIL
GALR2 agonist: agonists of human galanin receptor 2 (GALR2); O43603; GALR2-expressing cells, agonist activation read-out; activation, %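 (tested at 5 µM)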; hit rate 0.48% among 140,000; AID 803;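 active means above mean plus 3 SD of all compounds, about 5% in these data, not always enough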;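 further: 0% = vehicle buffer wells and 100% = reference agonist at full effect; tested in CHO reporter cells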
HSV augment: HSV replication enhancement; HSV replication augmentation in cells, fold increase; maximum fold increase; hit rate 0.005% among 220,000;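 active means peak rise of 1.5-fold or more in the series; tested in PC3 cells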;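 further: first round at 10 µM; read as green reporter fluorescence; hits show the peak of a series up to 25 µM; 1 = signal of infected wells without compound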
INS promoter inh: TRM-6 insulin promoter activity inhibition; inhibition, % at 2 µM; hit rate 0.9% among 130,000; TRM-6 cells (human fetal islet line), insulin promoter-eGFP reporter, imaging; reporter expression induced with tamoxifen;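 active means inhibition above the mean plus 3 SD, with well images judged a real hit on visual review, cut at about 60% in these data, passing the limit was not always enough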
RGS16-Gao: modulates binding between human RGS16 and Galphao | bead-based flow cytometry RGS16-Galphao binding, fluorescence; actives lie on both sides | binding response (% of control), % at 10 µM | hit rate 0.38% among 220,000 | AID 1441;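 active means below 25% or above 175%, edge rows of some plates excepted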;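 further: Galphao activated by GDP with aluminum fluoride before binding; 100% = wells without compound and 0% = beads without RGS; some results beyond the cut were filed as inactive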
INS promoter inh cell count: further read-out of INS promoter inh, marked with its call; normalized cell count, %; measured here: cell count, toxicity; reference of the scale not given here;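 cells exposed to compound for 48 h; stained nuclei by imaging scaled within each plate; lower means fewer cells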
HSV augment primary fold: second read-out of HSV augment, no call of its own (marks repeat the call); fold increase; compound at 10 µM; measured here: primary screen fold increase 10 uM; tested in PC3 cells;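 GFP signal in the first replicate; 1 = infected wells without compound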
Numbers without * were called inactive; [ ] = remark or other dose. Compounds as they come. Share with any hit: about 1.3%.

For Cc1ccc(C(=O)NCCc2ccncc2)cc1 the results were PKD1 kinase inh 5, GALR2 agonist -1.5, HSV augment inactive, INS promoter inh -20, RGS16-Gao 99, INS promoter inh cell count 46 and HSV augment primary fold 0.9.
`CCCCN1CNC(=S)N(Cc2ccccc2)C1` gave PKD1 kinase inh 7, GALR2 agonist -0.3, HSV augment inactive, INS promoter inh -17, RGS16-Gao 106, INS promoter inh cell count 115 and HSV augment primary fold 0.91.
Screening O=c1[nH]c2ccc(NS(=O)(=O)c3ccc(Cl)cc3)cc2[nH]1 returned PKD1 kinase inh -5, HSV augment inactive, RGS16-Gao 100 and HSV augment primary fold 1.1.
For COc1ccc(C2=CC(c3ccc(F)cc3)n3nnnc3N2)cc1 (configuration not stated) the results were PKD1 kinase inh 0, GALR2 agonist -1.8, INS promoter inh 38, RGS16-Gao 100 and INS promoter inh cell count 136.
COc1cc(NC(=O)c2cc3c(Cl)nc4ccccc4c3s2)cc(OC)c1OC was read as PKD1 kinase inh 3, GALR2 agonist 1.6, HSV augment inactive, INS promoter inh 48, RGS16-Gao 42, INS promoter inh cell count 156 and HSV augment primary fold 0.68.
Screening O=C(O)c1cc2n(n1)CCN(Cc1ccccc1Cl)C2=O returned PKD1 kinase inh -6, HSV augment inactive, RGS16-Gao 106 and HSV augment primary fold 0.89.
For CC(=O)c1ccc(N2CCN(C(=O)c3nn(Cc4ccccc4)c(=O)c4ccccc34)CC2)cc1 the results were PKD1 kinase inh -4, HSV augment inactive, INS promoter inh 17, RGS16-Gao 114, INS promoter inh cell count 103 and HSV augment primary fold 1.
CCOc1c(Br)cc(CNC2CCCCCCC2)cc1OC was read as PKD1 kinase inh -12, HSV augment inactive, RGS16-Gao 100 and HSV augment primary fold 0.8.
Screening O=C(N1CCOCC1)n1nnc2ccccc21 returned PKD1 kinase inh -12, GALR2 agonist -1.3 and RGS16-Gao 139.
`COc1cc(N2C(=O)NC3CC2(C)Oc2ccccc23)cc(OC)c1OC` (configuration not stated) gave PKD1 kinase inh 3, GALR2 agonist -1.5, HSV augment inactive, INS promoter inh 24, RGS16-Gao 102, INS promoter inh cell count 101 and HSV augment primary fold 0.85.
O=C(NCCOc1ccccc1Cl)C(=O)NCCOc1ccccc1Cl was read as PKD1 kinase inh -5, HSV augment inactive, RGS16-Gao 101 and HSV augment primary fold 0.94.
For O=C(Nc1nnc(C2CCCCC2)s1)c1ccc(Br)s1 the results were PKD1 kinase inh -5, GALR2 agonist -0.6, HSV augment inactive, INS promoter inh 13, RGS16-Gao 102, INS promoter inh cell count 87 and HSV augment primary fold 1.1.
For CCCCCCCCCCCC(=O)NC(C(=O)OCC)C(O)c1cccc([N+](=O)[O-])c1 (configuration not stated) the results were PKD1 kinase inh -3, GALR2 agonist -2.0, HSV augment inactive, INS promoter inh -23, RGS16-Gao 88, INS promoter inh cell count 74 and HSV augment primary fold 0.89.
Screening Cc1cccc(C(=O)C2CCOC(C)(C)C2)c1 (configuration not stated) returned HSV augment inactive, RGS16-Gao 101 and HSV augment primary fold 0.98.
CCOC(=O)N1CCN(S(=O)(=O)c2cc(Cl)c(OC)cc2Cl)CC1 was read as PKD1 kinase inh 3, GALR2 agonist -1.1, HSV augment inactive, INS promoter inh 7, RGS16-Gao 104, INS promoter inh cell count 59 and HSV augment primary fold 0.77.

Brought forward from above: 4 entries; new compounds follow.
For O=C(Nc1nnc(C2CCCCC2)s1)c1ccc(Br)s1 the results were PKD1 kinase inh -5, GALR2 agonist -0.6, HSV augment inactive, INS promoter inh 13, RGS16-Gao 102, INS promoter inh cell count 87 and HSV augment primary fold 1.1.
For CCCCCCCCCCCC(=O)NC(C(=O)OCC)C(O)c1cccc([N+](=O)[O-])c1 (configuration not stated) the results were PKD1 kinase inh -3, GALR2 agonist -2.0, HSV augment inactive, INS promoter inh -23, RGS16-Gao 88, INS promoter inh cell count 74 and HSV augment primary fold 0.89.
Screening Cc1cccc(C(=O)C2CCOC(C)(C)C2)c1 (configuration not stated) returned HSV augment inactive, RGS16-Gao 101 and HSV augment primary fold 0.98.
CCOC(=O)N1CCN(S(=O)(=O)c2cc(Cl)c(OC)cc2Cl)CC1 was read as PKD1 kinase inh 3, GALR2 agonist -1.1, HSV augment inactive, INS promoter inh 7, RGS16-Gao 104, INS promoter inh cell count 59 and HSV augment primary fold 0.77.
For CCOc1ccc(C2C(C(=O)c3cccs3)=C(O)C(=O)N2CCCn2ccnc2)cc1 (configuration not stated) the results were PKD1 kinase inh -14, GALR2 agonist -3.2, INS promoter inh 42 and INS promoter inh cell count 108.
For O=C(/C=C/c1ccc2c(c1)OCO2)Nc1nc(-c2ccc(F)cc2)cs1 the results were PKD1 kinase inh 5, GALR2 agonist -0.1, HSV augment inactive, INS promoter inh -34, RGS16-Gao 183*[activator], INS promoter inh cell count 111 and HSV augment primary fold 0.87.
CCOC(=O)c1c(NC(=O)c2ccccc2Br)sc2c1CCc1ccccc1-2 was read as PKD1 kinase inh 8, GALR2 agonist -1.6, HSV augment inactive, INS promoter inh 41, RGS16-Gao 71, INS promoter inh cell count 16 and HSV augment primary fold 0.97.
CCN1CCN(C(=O)C2=C(C(=O)O)CCCC2)CC1 was read as PKD1 kinase inh 12, GALR2 agonist -2.9, HSV augment inactive, RGS16-Gao 108 and HSV augment primary fold 1.1.
C=CCOC(=O)C1=C(C)N=C2SCCC(=O)N2C1/C=C/c1ccccc1OC (configuration not stated) was read as PKD1 kinase inh -4, HSV augment inactive, INS promoter inh 0, RGS16-Gao 92, INS promoter inh cell count 144 and HSV augment primary fold 0.84.
For Cc1ccc(-n2c3c(cc(C(=O)NCc4ccco4)c2=O)C(=O)CCC3)cc1 the results were PKD1 kinase inh -5, HSV augment inactive, RGS16-Gao 100 and HSV augment primary fold 0.74.
NC(=S)N/N=C\c1c2ccccc2cc2ccccc12 was read as PKD1 kinase inh 4, GALR2 agonist -1.1, HSV augment inactive, INS promoter inh -6, RGS16-Gao 103, INS promoter inh cell count 90 and HSV augment primary fold 1.
For Cc1ccc(Nc2nc(C)cc(C)n2)c(Br)c1 the results were PKD1 kinase inh -3, GALR2 agonist -1.4, HSV augment inactive, RGS16-Gao 102 and HSV augment primary fold 0.83.
For Cc1ccc(CNC(=O)CCS(=O)(=O)c2ccc(Br)s2)o1 the results were PKD1 kinase inh -14, GALR2 agonist -1.9, HSV augment inactive, INS promoter inh 12, RGS16-Gao 97, INS promoter inh cell count 185 and HSV augment primary fold 0.96.
O=c1cc(CN2CCN(c3cccc(Cl)c3)CC2)c2cc3c(cc2o1)CCCC3 was read as PKD1 kinase inh -14, GALR2 agonist -3.4, HSV augment inactive, INS promoter inh 0, RGS16-Gao 102, INS promoter inh cell count 121 and HSV augment primary fold 1.1.
Screening CCOC(=O)C1CCN(c2ccc(C(=O)O)cc2[N+](=O)[O-])CC1 returned PKD1 kinase inh 5, GALR2 agonist -1.0, HSV augment inactive, RGS16-Gao 103 and HSV augment primary fold 1.1.
`O=C(NCCCO)C(=O)c1c(-c2ccccc2)cc2ccccn12` gave PKD1 kinase inh -3, HSV augment inactive, RGS16-Gao 105 and HSV augment primary fold 0.9.
For CCC(=O)c1ccc(N2CCC(C)CC2)c(F)c1 the results were PKD1 kinase inh -5, HSV augment inactive, RGS16-Gao 102 and HSV augment primary fold 1.
Screening O=C(Cc1cccs1)N/N=C/c1ccco1 returned PKD1 kinase inh -6, GALR2 agonist -0.2, HSV augment inactive, INS promoter inh 13, RGS16-Gao 98, INS promoter inh cell count 92 and HSV augment primary fold 1.
`C1=CCC(CN2CCNCC2)CC1` (configuration not stated) gave PKD1 kinase inh 0, HSV augment inactive, RGS16-Gao 97 and HSV augment primary fold 1.1.
`CC(C)c1nc2c([nH]1)c(=O)n(C)c(=O)n2C` gave HSV augment inactive, RGS16-Gao 98 and HSV augment primary fold 1.1.
Screening O=C(Nc1ccc2oc(-c3ccccc3Cl)nc2c1)c1cncc(Br)c1 returned PKD1 kinase inh -5, GALR2 agonist -3.9, HSV augment inactive, INS promoter inh 25, RGS16-Gao 98, INS promoter inh cell count 102 and HSV augment primary fold 0.94.
For Cc1nn(-c2ccccc2)nc1C(=O)NNC(=O)c1ccc(C(F)(F)F)cc1 the results were HSV augment inactive, RGS16-Gao 81 and HSV augment primary fold 0.72.
COc1ccc2cc(C(C)=O)c(=O)oc2c1 was read as PKD1 kinase inh -1, GALR2 agonist 1.3, INS promoter inh 0, RGS16-Gao 107 and INS promoter inh cell count 111.
For COc1cc(OC)c2c(-c3ccccc3)cc(=O)oc2c1C(CC(=O)N1CCN(c2ccccc2)CC1)c1ccc(N(C)C)cc1 (configuration not stated) the results were HSV augment inactive, RGS16-Gao 98 and HSV augment primary fold 0.81.
`CCc1cc(C(=O)COc2ccc(F)cc2)c(O)cc1O` gave PKD1 kinase inh -1, HSV augment inactive, RGS16-Gao 108 and HSV augment primary fold 1.2.
For COC(=O)c1cc2oc3ccccc3c2n1CC(=O)N1CCCc2ccccc21 the results were PKD1 kinase inh -4, GALR2 agonist -1.2, HSV augment inactive, INS promoter inh 0, RGS16-Gao 100, INS promoter inh cell count 70 and HSV augment primary fold 0.84.
For Cc1ccc(-n2c(SCC(=O)NCCN3C(=O)CSC3=O)nnc2-c2ccccc2F)cc1 the results were PKD1 kinase inh -5, GALR2 agonist 0.0, HSV augment inactive, RGS16-Gao 44 and HSV augment primary fold 1.3.
Screening Cc1nn(-c2ccccc2)c(Cl)c1/C=C1\C(=O)N(C)C(=S)N1C returned PKD1 kinase inh -3, HSV augment inactive, INS promoter inh 25, RGS16-Gao 105, INS promoter inh cell count 149 and HSV augment primary fold 0.95.
`CC1(C)CC(=O)C(N=Nc2cccc(S(=O)(=O)N3CCOCC3)c2)=C(O)C1` gave HSV augment inactive, RGS16-Gao 105 and HSV augment primary fold 1.1.
For COc1ccccc1OCc1ccc(C(=O)N(C)C)o1 the results were PKD1 kinase inh 0, GALR2 agonist 0.1, HSV augment inactive, INS promoter inh 11, RGS16-Gao 99, INS promoter inh cell count 130 and HSV augment primary fold 0.86.
Screening CNC(=O)C1Cc2ccccc2CN1S(=O)(=O)c1cccs1 (configuration not stated) returned PKD1 kinase inh -9, GALR2 agonist -0.2, HSV augment inactive, INS promoter inh 17, RGS16-Gao 108, INS promoter inh cell count 89 and HSV augment primary fold 0.98.
For COCCNC(=O)NC(=O)COC(=O)c1cc([N+](=O)[O-])ccc1Sc1nc(C)cs1 the results were PKD1 kinase inh -6, GALR2 agonist -3.4, HSV augment inactive, INS promoter inh -3, RGS16-Gao 105, INS promoter inh cell count 332 and HSV augment primary fold 0.95.
COCCCNc1nc(N)c([N+](=O)[O-])c(Nc2ccccc2OC)n1 was read as HSV augment inactive, RGS16-Gao 103 and HSV augment primary fold 0.7.
O=C(c1ccc(C(F)(F)F)cc1)C1CCCN(C(=O)CCc2cnccn2)C1 (configuration not stated) was read as PKD1 kinase inh 1, HSV augment inactive, RGS16-Gao 107 and HSV augment primary fold 0.95.
`O=C(Cn1c(=O)sc2ccccc21)Nc1ccc(S(=O)(=O)N2CCCCC2)cc1` gave PKD1 kinase inh 0, GALR2 agonist 1.0, HSV augment inactive, INS promoter inh -50, INS promoter inh cell count 140 and HSV augment primary fold 0.92.
For COC(=O)c1c(NC(=O)c2ccco2)sc2c1C(C(=O)OC)CC2 (configuration not stated) the results were PKD1 kinase inh -2, GALR2 agonist 1.3, HSV augment inactive, RGS16-Gao 130 and HSV augment primary fold 1.1.
Cc1ccc(CN(CC2CCCO2)C(=O)CN2C(=O)C(C(C)C)Oc3ccccc32)o1 (configuration not stated) was read as PKD1 kinase inh -1, GALR2 agonist -0.6, HSV augment inactive, INS promoter inh 15, RGS16-Gao 58, INS promoter inh cell count 113 and HSV augment primary fold 0.89.
For CC1(C)CN(c2ccc(CC#N)cc2)C1=O the results were PKD1 kinase inh -1, HSV augment inactive, INS promoter inh 0, RGS16-Gao 104, INS promoter inh cell count 115 and HSV augment primary fold 0.86.
`COC(=O)c1ccc(Cl)c(NC(=O)NC23CC4CC(CC(C4)C2)C3)c1` gave PKD1 kinase inh -9, GALR2 agonist -0.6, HSV augment inactive, INS promoter inh 21, RGS16-Gao 99, INS promoter inh cell count 143 and HSV augment primary fold 0.88.
For CCNC(=O)COC(=O)C1CCC(=O)N(c2ccc(OC)cc2)C1c1ccc(OC)cc1 (configuration not stated) the results were PKD1 kinase inh -2, GALR2 agonist -1.2, HSV augment inactive, INS promoter inh 7, RGS16-Gao 53, INS promoter inh cell count 104 and HSV augment primary fold 0.85.
`COc1ccc2oc(=O)c(C(=O)N3CCCC3)cc2c1` gave PKD1 kinase inh 5, HSV augment inactive, RGS16-Gao 108 and HSV augment primary fold 0.93.
NC(=S)N/N=C/c1c[nH]c2ccccc12 was read as HSV augment inactive, RGS16-Gao 91 and HSV augment primary fold 1.
For COC(=O)c1cc2occc2n1Cc1nc(-c2cccc(Cl)c2)oc1C the results were PKD1 kinase inh -13, GALR2 agonist -1.6, INS promoter inh 17, RGS16-Gao 87 and INS promoter inh cell count 104.
